# High-throughput results from PubChem.
# HIV TAR-Tat = TAR RNA-Tat peptide displacers, HIV-1, primary screen, biochemical, FRET, FAM/TAMRA-labeled Tat. HIV-1 TAR RNA, Tat peptide displacement FRET; hits give high values. z-score (test concentration not listed). 100,000 tested, 0.6% active;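 note: score is relative to mean and SD of negative controls; some compounds called inactive have numbers as strong as hits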
# CDC25B-CDK2 inh = primary biochemical HTRF screen for blockers of M-phase inducer phosphatase 2 binding to CDK2/cyclin A. HTRF CDC25B-CDK2/CyclinA binding, anti-His/anti-Flag; hits give high values. z-score (test concentration not listed). 94,000 tested, 0.72% active;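 note: score is relative to mean and SD of negative controls; strong numbers were not always called active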
# An asterisk follows results filed as active; . = not tested or not shown.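 Rule for the calls: active = z-score from 3 up in half or more of its runs; inactive = the rest.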 This is a random part of the collection; overall some 0.89% were active at least once.
SMILES,HIV TAR-Tat,CDC25B-CDK2 inh
O=C1CCCN1c1ccc(CN2CC(=O)N(Cc3ccccc3F)c3ccccc3S2(=O)=O)cc1,1.64,0.13
CCC(C)N[C@H]1CS(=O)(=O)C[C@@H]1S(=O)(=O)c1ccc(F)c(C)c1 (stereo partly drawn),1.6,-0.46
CC(C)C(N)C(=O)N1CCc2ccccc21 (stereo not drawn),1.3,.
O=C1C2CCCN2C(c2ccccc2F)N1c1cccc(Cl)c1 (stereo not drawn),-0.96,-0.85
O=C1C2C3C=CC(C3)C2C(=O)N1c1cccc(-c2nc3ccccc3c(=O)o2)c1 (stereo not drawn),.,-0.19
CCCCN(C)c1nnc(NC(=O)Nc2ccc(F)cc2)s1,0.98,0.19
Cc1cccc(-n2nnc3c(sc4nc(C)ccc43)c2=O)c1,-0.77,-1.39
O=S(=O)(NCc1ccc2c(c1)OCO2)c1ccc(-c2cnc(C3CC3)o2)cc1,1.12,.
CCOC(=O)c1c(NC(=O)c2ccco2)sc2c1CCN(C(C)C)C2,2.23,.
CC(CCNC(=O)CCC(=O)N1CCCn2nc(-c3cccn3C)cc21)N1CCCC1 (stereo not drawn),2.59,.
CCn1cc(S(=O)(=O)c2ccccc2)c(=O)c2cc(F)ccc21,-1.43,-2.72
O=C(Cn1cnc(S(=O)(=O)N2CCc3ccccc32)c1)Nc1ccc(F)cc1,0.45,.
C(=N\Nc1ccc2ccccc2n1)/c1ccccn1,.,-1.3
COc1cc(C=C(C#N)C#N)cc(OC(C)=O)c1OC(C)=O,.,-2.46
COc1ccccc1-c1nc2c3c4c(sc3ncn2n1)C(C)(C)NC(C)(C)C4,1,0.84
CC[C@H](C)C(=O)O[C@H]1CCC=C2C=C[C@H](C)[C@H](CC[C@@H]3C[C@@H](O)CC(=O)O3)[C@H]21,2.13,0.04
COc1cccc(CSc2nncn3c2cc2occc23)c1,3.01,.
CCCCN1CC(c2nc3ccccc3n2CCCCOc2ccccc2)CC1=O (stereo not drawn),-0.13,-1.27
COc1ccc(C2N=C(c3ccc4c(c3)OCO4)CC(c3ccccc3O)N2)cc1OC (stereo not drawn),.,-2.99
COc1cccc(-c2noc(N3CCN(c4ccccc4F)CC3)n2)c1OC,0.72,.

# Taken from above:
# Value for COc1ccccc1-c1nc2c3c4c(sc3ncn2n1)C(C)(C)NC(C)(C)C4 in CDC25B-CDK2 inh: 0.84
# Value for CCC(C)N[C@H]1CS(=O)(=O)C[C@@H]1S(=O)(=O)c1ccc(F)c(C)c1 (stereo partly drawn) in CDC25B-CDK2 inh: -0.46

# The list goes on.
SMILES,HIV TAR-Tat,CDC25B-CDK2 inh
Cc1noc(/C=C/c2ccco2)c1S(=O)(=O)N1CCCC(C(=O)N2CCCC2)C1 (stereo not drawn),2.03,.
COC(=O)CCc1c(C(=O)OCc2ccccc2)[nH]c(C)c1C(=O)OC(C)(C)C,.,0.21
N#Cc1nc(COc2ccc(Cl)cc2)oc1NCCN1CCOCC1,-0.01,0.66
COc1cccc(OC)c1CCOC(=O)c1c(F)cccc1F,.,0.06
O=S(=O)([O-])CCC[n+]1c(/C=C/c2ccccc2)sc2ccccc21,-0.13,-0.72
Cn1c(SCc2ccc(Cl)cc2)nc(=O)c2c1NC(=O)CC2c1cccc(O)c1 (stereo not drawn),0.62,-1.05
COCCCNc1nc(N)c([N+](=O)[O-])c(Nc2ccc(Cl)cc2)n1,0.27,.
CC(C)CCNC(=O)C1(C)Cn2nc(C(=O)NC3CCCC3)cc2C(=O)N1C (stereo not drawn),1.8,.
CSc1cccc(NC(=O)C2CCN(c3ncnc4c3nc3n4CCCCC3)CC2)c1,-0.83,.
CSc1cccc(NC(=O)N2Cc3cccn3-c3ccccc32)c1,1.21,.
Cc1ccc(CSc2nc3nccnc3c(=O)n2Cc2cccs2)cc1,1.72,.
Cc1oc(-c2ccc(Cl)cc2)cc1-c1nn2c(-c3ccco3)nnc2s1,1.43,-1.29
CCC(C(=O)N1CCN(c2cccc(Cl)c2)CC1)n1sc2ccccc2c1=O (stereo not drawn),2.55,-0.72
CC(=O)N1N=C(c2ccc(F)cc2)OC1c1ccccn1 (stereo not drawn),1.73,.
Cc1cc(F)ccc1NS(=O)(=O)c1ccc2c(c1)NC(=O)C(C)CS2 (stereo not drawn),-0.15,.
CCCOc1ccc(C2c3c(oc4ccc(F)cc4c3=O)C(=O)N2CCCN(C)C)cc1 (stereo not drawn),-0.81,0.06
C#CCOc1ccc(C2C(C#N)=C(N)Oc3cc(O)ccc32)cc1 (stereo not drawn),0.38,-0.65
Cc1ccc(-c2nnc3c4ccccc4c(C)nn23)cc1S(=O)(=O)NCCN1CCOCC1,0.25,-0.78
COc1ccc(NC(=O)C2C3C=CC4(O3)C2C(=O)N(CCC(C)C)C4C(=O)NC2CCCCC2)cc1 (stereo not drawn),0.05,-0.75
O=S(=O)(Nc1ccccc1)c1ccc(-c2ccc(S(=O)(=O)Nc3ccccc3)cc2)cc1,1.72,-1.08
COc1ccc(NC(=O)c2cc3c(s2)-c2ccsc2CC3)cc1Cl,-0.46,.
CC(=O)Oc1ccc(C2C(C(=O)OC3CCCCC3)=C(C)NC3=C2C(=O)CC(C)(C)C3)cc1 (stereo not drawn),0.23,-3.22
O=C(CC1(O)C(=O)Nc2ccccc21)c1ccccn1 (stereo not drawn),0.59,0.76
CC1=NNC(=O)C1Oc1ccc(Cl)cc1Cl (stereo not drawn),.,-1.85
COc1ccc(-c2nc(Cn3nc(C)c4c(C)onc4c3=O)c(C)o2)cc1OC,-0.15,.
Cc1nc2c(c(C)c1CCC(=O)NCC1CCN(CC(C)C)C1)c(=O)n(C)c(=O)n2C (stereo not drawn),2.08,1.11
COc1ccc(-c2nc3c4cnn(Cc5ccccc5)c4ncn3n2)cc1OC,1.42,-0.91
O=C(C1CCN(S(=O)(=O)c2cccs2)CC1)N1CCc2ccccc2C1,2.32,-0.49
O=S(=O)(NCc1cc(F)cc2c1OCOC2)c1ccc(-c2ccccn2)s1,.,-0.31
COc1cc(OC)c(NC(=O)NCc2c(-n3cccc3)sc3c2CCCC3)cc1Cl,1.1,-2.05
COC(=O)C1=C(N)OC2=C(C(=O)CC(C)(C)C2)C1c1ccccc1 (stereo not drawn),.,-1.03
CC1CCCN(c2ccc3nncn3n2)C1 (stereo not drawn),.,-2.22
CCOCCCNS(=O)(=O)c1c(C)[nH]c(C)c1C(=O)OCC,0.12,.
Fc1ccc(-c2nnc3ccc(SCc4ccccn4)nn23)cc1,.,0.61
CCSC1=C(C#N)C(=O)NC(/C=C/c2ccccc2)S1 (stereo not drawn),-2.32,-2.66
CCn1nc(C)c(CNC(=O)NC(C)C(=O)OC)c1C (stereo not drawn),-0.12,.
Cn1c(=O)n(CC(=O)N2CCCC2)c(=O)c2cc(S(=O)(=O)N3CCCC3)ccc21,1.39,.
CC1=C(C(=O)Nc2ccc(C)cn2)C(c2cccc(Br)c2)C2=C(CC(C)(C)CC2=O)N1 (stereo not drawn),1.73,0.48
CC(C)NC(=O)N1CCCC1c1ccco1 (stereo not drawn),0.87,-0.96
COC(=O)Cc1c(C)nc2nc(N)[nH]n2c1=O,-0.21,0.47
CCOC(=O)CSc1nc2sc3c(c2c(=O)n1-c1ccccc1)CCN(C)C3,1.62,-0.73
CCOc1ccc(C2C(C(=O)OCCOc3ccccc3)=C(C)NC3=C2C(=O)CC(C)(C)C3)cc1 (stereo not drawn),-0.41,-2.97
COc1ccc(-c2cc(C(F)(F)F)nc(SCC(=O)NC3CC3)n2)cc1OC,0.36,0.64
Cc1cccc(C#Cc2ccccc2)n1,.,-0.56
CCc1ccc(C2C=C(C(=O)O)Nc3ncnn32)cc1 (stereo not drawn),-0.57,-0.6
COc1cc(OC)c(Nc2ncnc3c2nc2n3CCCC2)cc1Cl,0.3,.
CCOC(=O)c1cc(S(=O)(=O)N(C)CC(=O)NC2CCCC2)cn1C,0.05,.
Nc1cc(Cl)c(S(N)(=O)=O)cc1S(=O)(=O)NCc1ccccc1,.,-2.56
Nc1ncnc2c1ncn2CCNCc1ccccc1,0.84,-1.18
O=C1CCc2cc(S(=O)(=O)N3CCC(C(=O)O)CC3)ccc2N1,0.51,.
O=C(O)/C=C/C(=O)Nc1ccc(Oc2ccccc2)cc1,.,-1.53
O=C(c1cc(-c2cccs2)[nH]n1)N1CCN(C(=O)c2nsc3ccccc23)CC1,-1.01,.
Cc1oc(-c2ccccc2Cl)nc1Cn1c(C)nc2onc(C)c2c1=O,0.7,.
CCCS(=O)(=O)N1CCCc2ccc(NS(=O)(=O)c3ccc(F)cc3F)cc21,1.26,.
COc1cc(C2C(C#N)=C(N)OC3=C2C(=O)CC(C)(C)C3)cc(OC)c1OC (stereo not drawn),.,-0.72
CCOc1ccccc1N1CCN(c2ncnc3c2CC(=O)N3)CC1,-0.25,0.47
CCOc1ccc(-c2noc(-c3nnn(-c4ccc(C)cc4)c3N)n2)cc1,0.4,.
Clc1ccc(OCCCCN2CCCCC2)cc1,.,-1.32
Cc1cc(C)c(Cn2cccc2CNC(=O)NCCC(C)C)c(C)c1,0.36,.
CCc1nc2ccccc2n1Cc1cccc(Cl)c1,0.94,-0.75

# Exported with two lines to a compound: 16 of the compounds above.
# Below each compound: HIV TAR-Tat	CDC25B-CDK2 inh
- CCc1ccc(C2C=C(C(=O)O)Nc3ncnn32)cc1 (stereo not drawn)
  -0.57	-0.6
- COc1cc(OC)c(Nc2ncnc3c2nc2n3CCCC2)cc1Cl
  0.3	.
- CCOC(=O)c1cc(S(=O)(=O)N(C)CC(=O)NC2CCCC2)cn1C
  0.05	.
- Nc1cc(Cl)c(S(N)(=O)=O)cc1S(=O)(=O)NCc1ccccc1
  .	-2.56
- Nc1ncnc2c1ncn2CCNCc1ccccc1
  0.84	-1.18
- O=C1CCc2cc(S(=O)(=O)N3CCC(C(=O)O)CC3)ccc2N1
  0.51	.
- O=C(O)/C=C/C(=O)Nc1ccc(Oc2ccccc2)cc1
  .	-1.53
- O=C(c1cc(-c2cccs2)[nH]n1)N1CCN(C(=O)c2nsc3ccccc23)CC1
  -1.01	.
- Cc1oc(-c2ccccc2Cl)nc1Cn1c(C)nc2onc(C)c2c1=O
  0.7	.
- CCCS(=O)(=O)N1CCCc2ccc(NS(=O)(=O)c3ccc(F)cc3F)cc21
  1.26	.
- COc1cc(C2C(C#N)=C(N)OC3=C2C(=O)CC(C)(C)C3)cc(OC)c1OC (stereo not drawn)
  .	-0.72
- CCOc1ccccc1N1CCN(c2ncnc3c2CC(=O)N3)CC1
  -0.25	0.47
- CCOc1ccc(-c2noc(-c3nnn(-c4ccc(C)cc4)c3N)n2)cc1
  0.4	.
- Clc1ccc(OCCCCN2CCCCC2)cc1
  .	-1.32
- Cc1cc(C)c(Cn2cccc2CNC(=O)NCCC(C)C)c(C)c1
  0.36	.
- CCc1nc2ccccc2n1Cc1cccc(Cl)c1
  0.94	-0.75

# Remaining list, next part
SMILES,HIV TAR-Tat,CDC25B-CDK2 inh
Cc1cc(C)cc(NS(=O)(=O)C2CCS(=O)(=O)C2)c1 (stereo not drawn),0.1,-1.83
CCCCC(=O)Nc1nn2c(CCC)nnc2s1,0.53,-2.07
O=C(CN1c2ccccc2S(=O)(=O)c2ccccc21)N1CCN(c2cccc(Cl)c2)CC1,0.49,.
COC(=O)c1c(C)oc2cc(Br)c(OCC(=O)OC(C)(C)C)cc12,.,-2.22
O=C1c2ccccc2C(Nc2ccc(Br)cn2)N1Cc1ccccc1 (stereo not drawn),-0.38,-1.03
CC(=O)OCC(=O)NCCCOc1cccc(CN2CCCCC2)c1,1.39,.
O=C(C1=NNCC1c1ccc(Cl)cc1)c1ccc2ccccc2c1 (stereo not drawn),.,-1.2
COC(=O)c1c(C)sc(-c2c(-c3ccc(OC)cc3)[nH]c3c2c(=O)n(C)c(=O)n3C)c1O,-1.16,-2.23
CC(C)(C)C1CCc2c(sc3ncc(NC(=O)c4ccc(Cl)cc4)c(=O)n23)C1 (stereo not drawn),0.37,-1.76
Cc1cc(-c2ccc(=O)[nH]n2)cc(S(=O)(=O)NCc2cccnc2)c1C,1.76,.
Cc1ccc(NC(=O)C(=O)N/N=C/c2ccc3c(c2)OCO3)cc1C,.,-0.3
CCOC(=O)N1CCN(C(=O)CCc2c(C)nc3c(c2C)c(=O)n(C)c(=O)n3C)CC1,1.07,-0.28
Cc1cc(-c2ccc(S(=O)(=O)Nc3cccc(Cl)c3)s2)on1,-1.24,.
c1ccc2c(c1)c(NC1CCCCC1)nn1nnnc21,0.94,.
Cc1ccc(-n2ncc3c2ncn2nc(Cc4ccccc4)nc32)cc1,3.29,-1.47
COc1ccc(-c2noc(N3CCc4ccccc4C3)n2)cc1,1.01,-1.86
Cc1c(C)n(-c2ccccc2)c2ncn3nc(-c4ccc(F)cc4)nc3c12,0.21,-1.33
O=C(NCCCN1CCCCC1)c1noc2c1CSc1ccccc1-2,1.4,-1.77
O=c1c2c3c(sc2ncn1Cc1c(F)cccc1F)CCCC3,-1.2,.
OC1(C2CCN3Cc4ccccc4N=C23)CCOCC1 (stereo not drawn),1.03,.
c1cnc2nc(N3CCCC3)oc2c1,0.81,-1.54
CCc1nnc2c(Nc3ccccc3OC)nc3ccccc3n12,0.59,-0.56
Cc1cccc(N2CCN(S(=O)(=O)c3ccc(-c4coc(C)n4)cc3)CC2C)c1 (stereo not drawn),0.31,.
CCc1nnc2sc(COc3ccccc3C)nn12,-0.25,-1.06
CCSc1nnc(NC(=O)CCCN2C(=S)NC(C)(C)CC2C)s1 (stereo not drawn),.,-0.26
Cc1nn(-c2ccccc2)c(-n2cccc2)c1CNC(=O)NC(C)C,-1.33,.
Cc1ccc(Nc2c(-c3ccc(C)o3)nc3ccccn23)cc1,.,2.19
Cc1ccc(S(=O)(=O)N2CCc3cc4cccc(C)c4nc32)cc1,-0.25,-0.87
Fc1ccc(CSc2nc3ncccc3o2)c(Cl)c1,0.44,.
CCN(C(=O)Cn1nc(-c2ccco2)ccc1=O)c1ccccc1,2.2,.
CCCCN1C(SCC(=O)NCCC(C)C)=NS(=O)(=O)c2ccccc21,0.89,.
O=c1[nH]c(-c2ccc(F)cc2)nc2c1Cc1c(ccc3ccccc13)O2,-0.04,0.47
Cc1nc2ccccc2n1CCCCOc1ccc(Cl)cc1,2.76,-2.51
